High-throughput results (PubChem BioAssay)
CBX7 inh: inhibitors of human CBX7 binding to H3K27me3 peptide | AlphaScreen His6-CBX7 / biotin-H3K27me3 peptide binding; active compounds read low | 1.1% of 66,000 active | AID 1224903 | normalised signal (fraction of DMSO) (test concentration not listed) | O95931; in the data active = normalised signal below about 0.5;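 note: 100 nL library stock added to about 20 µL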
Target sequence (O95931 whole entry, looked up): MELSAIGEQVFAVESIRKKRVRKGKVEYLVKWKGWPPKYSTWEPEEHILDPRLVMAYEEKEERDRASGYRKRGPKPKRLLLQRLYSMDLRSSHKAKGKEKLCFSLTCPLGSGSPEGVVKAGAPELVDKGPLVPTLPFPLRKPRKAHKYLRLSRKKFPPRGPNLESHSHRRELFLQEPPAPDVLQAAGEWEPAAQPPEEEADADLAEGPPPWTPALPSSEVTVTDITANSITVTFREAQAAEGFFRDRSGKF
CBX7 inh z-score: also measured in CBX7 inh; calls as there; z-score; measured here: z-score of CBX7 signal; some inactives read as strong as hits; reference of the scale not given here;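 same signal on another scale; lower means less binding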
* marks the source's active call; other numbers are inactive results; & = joins results of further samples.

smiles	CBX7 inh z-score	CBX7 inh
CCc1cccc(C)c1Nc1c(-c2cccnc2)nc2ncccn12	1.5	1
Cc1c(Cl)cccc1NC(=O)c1oc2ccc(S(=O)(=O)N3CCCCC3)cc2c1C	1.8	1
COC(CNC(=O)c1ccc2c(c1)nc(C)n2-c1ccc(F)c(F)c1)OC	1.4	1.1
CN(CCNC(=O)CCn1nc(-c2ccc(Cl)cc2)ccc1=O)Cc1ccccc1	-0.58	0.97
Cc1cccc2sc(NC(=O)c3cnc4sccn4c3=O)nc12	0.03	1
CCC(=O)N1CCc2cc(S(=O)(=O)NCc3ccccc3)ccc21	1.6	1.1
Cn1nc(C(=O)Nc2ccc(Br)cc2)cc1C(=O)Nc1ccc(Br)cc1	-1.3	0.93
CCOC(=O)c1cnc2ccc(OC)cc2c1Nc1ccc(Cl)cc1C	-1.1	0.76
O=C(NC1CCCc2ccccc21)C1CCCN(S(=O)(=O)c2cnc[nH]2)C1 (stereo not drawn)	0.18	1
COc1ccc(-n2nc3c(c2NC(=O)CCC2CCCC2)CSC3)cc1	0.48	1
Cc1ccc(C(=O)N2CC(=O)Nc3ccc(Br)cc3C2c2ccccc2)cc1 (stereo not drawn)	0.59	1.1
CCCc1cc(=O)[nH]c(SCC(=O)Nc2ccc(C)cc2C)n1	-0.63	0.97
COC(=O)c1ccccc1NC(=O)CCc1nc(-c2ccc(OC)cc2)no1	3.3	1.2
O=c1cc(N2CCCCCC2)[nH]c(=O)n1-c1ccc(Cl)cc1	-0.44	0.98
O=C(Cn1nc(-c2ccc(Cl)cc2)ccc1=O)NCCN1CCOCC1	-0.33	0.99
CCOC(=O)c1cnc2c(C)c(Cl)ccc2c1Nc1ccc(C)cc1C	0.28	1.1
CC1=C(C(=O)Nc2cc(C)ccn2)C(c2ccccc2C(F)(F)F)C2=C(CCCC2=O)N1 (stereo not drawn)	-0.027	0.99
CC(C)n1cnc2cc(NCc3ccccc3Cl)ccc21	-15*	0.46*
FC(F)(F)c1c2c(nc3c(-c4ccccc4)cnn13)CCC2	-1.9	0.84
O=C(CSc1nnc(-c2cccc(F)c2)n1-c1ccccc1)NCC1CCCO1 (stereo not drawn)	0.94	1

smiles	CBX7 inh z-score	CBX7 inh
COc1ccccc1C(=O)Nc1c2c(nn1-c1ccc(C)cc1)CSC2	-3.5	0.81
COc1ccc(OC)c(N2CC(c3nc4ccccc4n3C)CC2=O)c1 (stereo not drawn)	0.36	1.1
Cc1ccc(C)c2[nH]c(=O)c(CCNC(=O)C(C)(C)C)cc12	0.32	1
COc1cccc(-c2nn(C)c3sc(C(=O)Nc4ccccn4)cc23)c1	-1.8	0.86
Cc1c(C(=O)NCc2ccccc2Cl)oc2c1C(=O)CCC2	0.83	1
CCCCNC(=O)c1cc(=O)n(Cc2ccc(Cl)cc2)c2ccccc12	-0.14	0.99
Cc1cccc(NC(=O)C2CCCN2S(=O)(=O)c2ccc3c(c2)n(C)c(=O)c(=O)n3C)c1C (stereo not drawn)	2	1.2
O=C(NCCc1c[nH]c2ccc(OCc3ccccc3)cc12)c1ccc(Cl)cc1	-0.49	0.58
CC(=O)N1CCc2cc(S(=O)(=O)NCC(=O)NCc3ccccc3)ccc21	3.8	1.1
COc1ccccc1OCc1nc(-c2cccc(C)c2)no1	9.5	1.3
COc1ccc(CC(=O)N2CC(=O)Nc3ccc(C)cc3C2c2ccc(F)cc2)cc1OC (stereo not drawn)	-1.7	0.91
Cc1ccc(C2CC(C(F)(F)F)n3nc(C(=O)NCC4CCCO4)cc3N2)cc1 (stereo not drawn)	0.15	1
Cc1cccc(-n2c(C)c(C(=O)c3ccccc3)c3cc(O)ccc32)c1	1.3	1.1
COc1ccc(OCc2nc(C#N)c(N3CCN(c4ccc(OC)cc4)CC3)o2)cc1	-8.9	0.69
O=C(c1nsnc1-c1ccccc1O)N1CCCCC1	-0.4	0.98
COc1ccc(-n2nc3c(c2NC(=O)c2ccc(Br)cc2)CSC3)cc1	-3.5	0.85
Cc1nc2cc(-c3ccc(Cl)cc3)nn2c(C)c1CCC(=O)Nc1ccccc1F	0.49	1
CCCCN1CCCC1C(=O)NCc1ccc(OC)c(OC)c1 (stereo not drawn)	0.16	1
COc1ccc(C(C(=O)NC2CCCCC2)N(Cc2ccccc2)Cc2ccccc2)cc1 (stereo not drawn)	-2	0.96
O=C(Nc1ccc(-c2nc3cc(Cl)ccc3o2)cc1)c1ccc2ccccc2c1	1.2	1.1

Part of the list above, with values under each structure.
Each structure is followed by: CBX7 inh z-score | CBX7 inh
> CCCCNC(=O)c1cc(=O)n(Cc2ccc(Cl)cc2)c2ccccc12
→ -0.14 | 0.99
> Cc1cccc(NC(=O)C2CCCN2S(=O)(=O)c2ccc3c(c2)n(C)c(=O)c(=O)n3C)c1C (stereo not drawn)
→ 2 | 1.2
> O=C(NCCc1c[nH]c2ccc(OCc3ccccc3)cc12)c1ccc(Cl)cc1
→ -0.49 | 0.58
> CC(=O)N1CCc2cc(S(=O)(=O)NCC(=O)NCc3ccccc3)ccc21
→ 3.8 | 1.1
> COc1ccccc1OCc1nc(-c2cccc(C)c2)no1
→ 9.5 | 1.3
> COc1ccc(CC(=O)N2CC(=O)Nc3ccc(C)cc3C2c2ccc(F)cc2)cc1OC (stereo not drawn)
→ -1.7 | 0.91
> Cc1ccc(C2CC(C(F)(F)F)n3nc(C(=O)NCC4CCCO4)cc3N2)cc1 (stereo not drawn)
→ 0.15 | 1
> Cc1cccc(-n2c(C)c(C(=O)c3ccccc3)c3cc(O)ccc32)c1
→ 1.3 | 1.1
> COc1ccc(OCc2nc(C#N)c(N3CCN(c4ccc(OC)cc4)CC3)o2)cc1
→ -8.9 | 0.69
> O=C(c1nsnc1-c1ccccc1O)N1CCCCC1
→ -0.4 | 0.98
> COc1ccc(-n2nc3c(c2NC(=O)c2ccc(Br)cc2)CSC3)cc1
→ -3.5 | 0.85
> Cc1nc2cc(-c3ccc(Cl)cc3)nn2c(C)c1CCC(=O)Nc1ccccc1F
→ 0.49 | 1
> CCCCN1CCCC1C(=O)NCc1ccc(OC)c(OC)c1 (stereo not drawn)
→ 0.16 | 1
> COc1ccc(C(C(=O)NC2CCCCC2)N(Cc2ccccc2)Cc2ccccc2)cc1 (stereo not drawn)
→ -2 | 0.96
> O=C(Nc1ccc(-c2nc3cc(Cl)ccc3o2)cc1)c1ccc2ccccc2c1
→ 1.2 | 1.1

The list continues.
smiles	CBX7 inh z-score	CBX7 inh
Brc1ccc2nc(-c3ccccn3)c(Nc3ccccc3)n2c1	-0.41	0.96
COc1ccc(C2=Cc3cc(C)c(C#N)c(=O)n3C2)cc1	-1.3	0.95
COc1ccc(OC)c2[nH]c(=O)c(CCNC(=O)c3ccc(F)cc3)cc12	-0.45	0.99
Brc1cccc(-c2nc3ccccn3c2Nc2ccc3c(c2)OCO3)c1	-1.1	0.87
Cc1cccc(N2CCN(c3ccc4nnc(CCC(=O)Nc5ccc(C)c(C)c5)n4n3)CC2C)c1 (stereo not drawn)	-0.85	0.95
O=C(Nc1ccc(F)c(Cl)c1)c1cc(-c2ccc(Cl)cc2)on1	0.11	1.1
CCOC(=O)N1CCN(c2c(N3CCN(c4ccc(OC)cc4)CC3)c(=O)c2=O)CC1	0.79	1
CCn1c(SCCC(C)C)nnc1-c1c[nH]c2ccccc12	-5.2	0.7
CCCN(CCC)CCNC(=O)CN1C(=O)COc2ccc(S(=O)(=O)N3CCOCC3)cc21	0.64	1
Cc1ccc(-c2nc(C3CCCN(S(=O)(=O)c4ccc(C(F)(F)F)cc4)C3)no2)cc1 (stereo not drawn)	0.93	1.2
CCOc1ccc(CN2C(=O)c3ccccc3C2C(=O)NC(C)CC)cc1OC (stereo not drawn)	1.2	1.1
CCC(C)NC(=O)c1ccc2c(c1)N(Cc1cc(C)ccc1C)C(=O)CS2 (stereo not drawn)	-0.5	0.98
COc1ccccc1OCC(=O)N(Cc1nc(-c2cccc(C)c2)no1)C(C)C	-3.5	0.64
Cc1oc(-c2cccc(Cl)c2)nc1CN1CCCC(C(=O)NCCCN2CCOCC2)C1 (stereo not drawn)	-0.55	0.95
CCOc1ccc(CN2C(=O)CCC2(C)C(=O)NC(C)CC)cc1OC (stereo not drawn)	3.3	1.3
Cc1ccc(NC(=O)CC2Oc3ccccc3NC2=O)cc1 (stereo not drawn)	0.22	1
COc1cccc(NC(=O)CCc2c(C)nc3ncnn3c2C)c1	1.1	1.1
CC12c3ccccc3C(c3ccccc31)C1C(=O)N(c3ccc(C(=O)O)cc3)C(=O)C12 (stereo not drawn)	0.49	1
Cn1nc(-c2ccc(N3CCCCC3)c(NC(=O)c3cccs3)c2)c2ccccc2c1=O	-1.2	0.73
COc1cc(NC(=O)COCc2cc(-c3ccc(F)cc3)on2)c(OC)cc1Cl	-0.0063	1

smiles	CBX7 inh z-score	CBX7 inh
COc1ccc(NC(CNS(=O)(=O)c2ccc(Cl)cc2)c2ccccc2)cc1 (stereo not drawn)	-2	0.54
CCc1cc2c(=O)c(-c3ccc4ccccc4n3)coc2cc1OC	-1.3	0.95
COc1ccc(CNC(=O)C(C)N2C(=O)COc3ccc(C)cc32)c(OC)c1 (stereo not drawn)	-5.4	0.7
Cc1ccc(CNC(=O)CN(C)S(=O)(=O)c2ccc3nc(C)sc3c2)cc1	1.3	1.2
COc1ccc(-c2nc3ccccc3o2)cc1NC(=O)c1cccc(OCc2ccccc2)c1	0.81	1.2
Cc1ccc(C(=O)Nc2ccccc2-c2nc3ccccc3[nH]2)cc1	0.054	1
CCOc1ccc(C(=O)c2cn(Cc3ccc(C)cc3)c3cc4c(cc3c2=O)OCO4)cc1	-2.6	0.73
O=C(Nc1cccc(Cl)c1)C1CCC(CNS(=O)(=O)c2cccc3cccnc23)CC1 (stereo not drawn)	0.79	1
Cc1ccc(CNC(=O)c2cnc3cc(C)ccn3c2=O)cc1	1.1	1
COc1ccc(NC(=O)C2CCN(S(=O)(=O)c3cccc4nsnc34)CC2)cc1Cl	0.48	1.1
CS(=O)(=O)N1CCC(C(=O)NCc2ccccc2)CC1	0.79	1.1
CCOc1ccc(-n2c(C)nc3c(cnn3-c3ccc(C)c(C)c3)c2=O)cc1	0.63	1
CC(NC(=O)C1CCCN(c2nc3ccccc3[nH]2)C1)c1ccc2c(c1)OCCO2 (stereo not drawn)	-1.4	0.88
Cc1ccc(NC(=O)c2ccc(C)c(NC3=NC4CS(=O)(=O)CC4S3)c2)cc1C (stereo not drawn)	-0.31	0.99
CCCCN(c1nc(C)cc(OC)n1)S(=O)(=O)c1ccc(C)cc1	0.15	1
CC1CC(C)CN(C(=O)c2ccc3c(c2)N(Cc2ccccc2Cl)C(=O)c2ccccc2S3)C1 (stereo not drawn)	-1.8	0.94
CCOc1ccc(N2CC(c3nc4ccccc4n3Cc3ccccc3)CC2=O)cc1 (stereo not drawn)	-2	0.81
CC(C)=C1C2C=CC1C1C(=O)N(c3ccc(Cl)c(C(=O)O)c3)C(=O)C21 (stereo not drawn)	-0.77	0.94
CC(C)=C1C2C=CC1C1C(=O)N(c3ccc(Cl)c(Cl)c3)C(=O)C21 (stereo not drawn)	-0.97	0.94
CCC1Oc2ccc(Cl)cc2N(C(C)C(=O)NCCC2=CCCCC2)C1=O (stereo not drawn)	1.2	1.1

smiles	CBX7 inh z-score	CBX7 inh
COc1ccc(CN2C(=O)N(c3ccc(C)cc3)C(=O)C2CC(=O)Nc2ccc(OC)cc2)cc1 (stereo not drawn)	-0.084	0.98
COc1ccc(-c2cc(C(=O)N3CCCc4ccccc43)no2)cc1	1.5	1.3
CC(C)c1ccc(-n2cnc3cc(C(=O)NCc4ccc5c(c4)OCO5)ccc32)cc1	-3.6	0.85
CCOC(=O)c1sc2ncn(CC(=O)Nc3cc(Cl)ccc3OC)c(=O)c2c1C	3.9	1.1
CCOC(=O)c1ccc(NC(=O)C2CCN(c3nnc(-n4cccc4)s3)CC2)cc1	-0.34	0.99
CCOC(=O)C1CCN(c2c(NCCCc3ccccc3)c(=O)c2=O)CC1	0.19	1
CCOc1ccc(C(=O)N2CC(=O)Nc3ccc(Cl)cc3C2c2ccc(F)cc2)cc1OCC (stereo not drawn)	-2.6	0.9
COc1cccc(C(=O)Nc2ccc3oc(-c4cc(Br)ccc4Cl)nc3c2)c1	-0.99	0.96
CCC(=O)N1CCc2cc(S(=O)(=O)Nc3ccccc3OC)ccc21	1.5	1.1
O=C(Nc1ccc2oc(-c3ccc(Br)cc3)nc2c1)c1ccc(F)cc1	1.3	1
CC(=O)n1cc(-c2ccncc2)c2ccccc21	-1&1.4	0.94&1
CC(=O)NC(CCCN1C(=O)c2ccccc2C1=O)c1nn[nH]n1 (stereo not drawn)	0.23	1
Cc1ccc2cccc(SCc3ccc(Br)cc3)c2n1	0.21	1
CCOC(=O)c1c2n(c3cc(Br)c(OC)cc13)CCN(c1ccccc1)C2	0.27	1
Oc1cccc(Nc2nc(-c3cccs3)cs2)c1	-3.7	0.77
CCOc1ccc2nc(N3CCCC(C(=O)N4CCc5ccccc5C4)C3)sc2c1 (stereo not drawn)	-6.3	0.77
Cn1c(C(=O)NCC2CCCO2)cc2sc(Cl)cc21 (stereo not drawn)	1.4	1
CC1CCCC(NC(=O)c2ccc3c(c2)N(Cc2c(F)cccc2Cl)C(=O)CS3)C1C (stereo not drawn)	0.081	1
CCOC(=O)c1nnn(-c2nonc2N)c1CN1CCN(Cc2ccccc2)CC1	-0.12	0.99
Cc1cccc(CN2CCN(CC(=O)N3CCN(c4cccc(C)c4)C(C)C3)C2=O)c1 (stereo not drawn)	-1	0.98
COc1cc2c(C(=O)N3CCN(c4ccc(F)cc4)CC3)cn(CC(C)C)c(=O)c2cc1OC	0.68	1.1
O=c1c2ccccc2nc(/C=C/c2ccc3c(c2)OCO3)n1-c1ccc2ccccc2c1	2.9	1.1
COc1ccc(N(C)C(=O)Cc2c(C(=O)O)[nH]c3ccccc23)cc1	-0.6	0.97

These rows are one share of the data; rates above refer to the full screens.
